# SARS PLpro yeast = blocks SARS-CoV papain-like protease in a yeast assay | S. cerevisiae expressing SARS-CoV PLpro, growth rescue; control for the full effect not named in the record | Potency, µM (top dose mostly 32.9 µM), inactives show at the highest dose activity, positive = growth rescue | 330,000 compounds, 0.19% hits; active means well fitted rising curve with a large enough effect; inconclusive means small, poorly fitted or top-dose-only effect; inactive means no such curve, though single readings can be large or run the other way; also: 0% is about no effect; nearly all actives have a fitted effect of over 55% in size; growth read by luminescence after 48 h
# StopGo reporter = lowers the luciferase signal of an FMDV 2A StopGo reporter. human cells with a luciferase reporter of 2A StopGo recoding; control for the full effect not named in the record. Potency, µM (highest dose often 57.9 µM), inactives show top-dose signal change, negative = less light. 410,000 compounds, 1.2% hits; active = well fitted falling curve with a large enough effect; inconclusive = small, poorly fitted or top-dose-only effect; inactive = no such curve, though single readings can be large or run the other way; tested in HEK293T cells; also: % is scaled to controls: 0 for no effect and ±100 for the full control effect; nearly all actives have a fitted effect of over 45% in size; luciferase light after 4 h
# MARV entry inh = inhibitors of Marburg virus binding or cell entry | Marburg virus pseudotyped entry inhibition, cell reporter; control for the full effect not named in the record; about a third of the inactives were read at about 46 µM | Potency, µM (top dose mostly 37.8 µM), inactives show at the highest dose activity change, negative = inhibition, actives largely listed as inhibitors | 300,000 compounds, 1.8% hits | AID 540276; active = well fitted inhibition curve with a large enough effect; inconclusive = small, poorly fitted or top-dose-only effect, or effect the other way; inactive = flat fitted curve, though single readings scatter; tested in HEK293 cells; about a fifth of its hits are not listed in these tables; also: % is scaled to controls: 0 for no effect and ±100 for the full control effect; luciferase read-out
# Cruzain Triton = blocks cruzain activity in presence of Triton detergent. P25779. purified cruzain, Z-FR-AMC fluorescence, 0.01% Triton. Potency, µM, without a hit: max response, negative = inhibition, usual class: inhibitors. 200,000 compounds, 0.43% hits. AID 1478;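 also: plate controls were neutral wells for no effect and buffer without enzyme for full effect; nearly all actives have a fitted effect of over 40% in size; top concentration of the series not given in the record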
# Target sequence (P25779 123-467 limits assumed): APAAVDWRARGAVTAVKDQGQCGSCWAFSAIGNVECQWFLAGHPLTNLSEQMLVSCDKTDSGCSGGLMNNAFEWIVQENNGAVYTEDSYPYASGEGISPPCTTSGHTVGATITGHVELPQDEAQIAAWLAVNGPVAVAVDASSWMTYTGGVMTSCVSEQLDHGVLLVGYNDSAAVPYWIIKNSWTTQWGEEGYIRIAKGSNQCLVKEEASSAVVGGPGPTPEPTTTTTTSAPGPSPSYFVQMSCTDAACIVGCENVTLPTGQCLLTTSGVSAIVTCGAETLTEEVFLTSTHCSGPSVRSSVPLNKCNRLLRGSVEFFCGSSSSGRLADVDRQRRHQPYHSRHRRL
#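 Enzyme 1.5 nM, Z-FR-AMC 2 uM, NaOAc 100 mM pH 5.5, DTT 5 mM, Triton X-100 0.01%; 15 min RT compound preincubation; kinetic ex360/em450, 60 s delta.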
# Lassa entry inh = Lassa virus entry inhibition; Potency, µM (titrated, usually from 37.9 µM), without a hit: top-dose activity change, negative = inhibition, actives largely listed as inhibitors; Lassa virus pseudotype entry inhibition, cell reporter; control for the full effect not named in the record; 300,000 compounds, 1.2% hits; active means well fitted inhibition curve with a large enough effect; inconclusive means small, poorly fitted or top-dose-only effect, or effect the other way; inactive means flat fitted curve, though single readings scatter; tested in HEK293 cells; also: % is scaled to controls: 0 for no effect and ±100 for the full control effect; nearly all actives have a fitted effect of over 50% in size; luciferase read-out
# Cruzain inh noDet = blocks cruzain activity in detergent-free assay; P25779; purified cruzain, Z-FR-AMC fluorescence, no detergent; Potency, µM, for the others: max response, negative = inhibition, hits mostly inhibitors; 200,000 compounds, 2.3% hits;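 also: plate controls were enzyme without inhibitor for no effect and buffer without enzyme for full effect; nearly all actives have a fitted effect of over 40% in size; top concentration of the series not given in the record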
#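 Purified cruzain at 1.5 nM, pre-incubated 15 min with compound at room temperature in 100 mM sodium acetate pH 5.5, 5 mM DTT, 0.00005% Triton X-100. Reaction started with 2 uM Z-FR-AMC; AMC fluorescence increase over 60 s gives rate.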
# RE007 growth inh = less growth of the S. pombe RE007 Vpr strain. S. pombe RE007 Vpr strain, BacTiter-Glo ATP luminescence, 24 h; control for the full effect not named in the record. Potency, µM (series often up to 92.2 µM), for the others: at the top dose activity change, negative = less growth. 360,000 compounds, 0.21% hits. AID 651644; active = well fitted falling curve with a large enough effect; inconclusive = small, poorly fitted or top-dose-only effect; inactive = no such curve, though single readings can be large or run the other way;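 also: % is scaled to controls: 0 for no effect and ±100 for the full control effect; nearly all actives have a fitted effect of over 50% in size; the assay follows cell death caused by Vpr and the record does not say whether a fall means rescue or toxicity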
#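 Fission yeast strain RE007, carrying one chromosomally integrated HIV-1 vpr copy, was seeded at OD 0.01 in PMG+AL medium with 23 nL pinned compound. After 24 h at 30 °C and 99% humidity, viability was read by BacTiter-Glo luminescence.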
# NS1 function inh = influenza NS1 inhibition; S. cerevisiae slowed by influenza A NS1, growth recovery by OD600; AID 2326; Potency, µM (highest dose often 46.1 µM), for the others: top-dose activity, positive = more growth; 270,000 compounds, 0.4% hits; active means well fitted rising curve with a large enough effect; inconclusive means small, poorly fitted or top-dose-only effect; inactive means no such curve, though single readings can be large or run the other way; also: nearly all actives have a fitted effect of over 50% in size
#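 In this qHTS, NS1 from influenza A is expressed in budding yeast, where it slows growth. Cells are switched from glucose to 2% galactose medium (pH 6.0, -URA), treated with compound, and growth recovery is read at OD600.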
# Numbers without * were called inactive; ? = inconclusive; · = not tested or not shown; & = joins results of further samples; [ ] = dose if it differs, or a comment. Unless noted, calls follow the shape of the dose curve; as a rule, active = well fitted curve in the direction sought with a large enough effect; inconclusive = small, poorly fitted or top-dose-only effect, or another doubt; inactive = no such curve, though single readings can be large; an effect the other way counts as inactive or inconclusive. Potency is read from the fitted curve at half-maximal effect. Compounds as they come, and some 4.8% of all compounds hit somewhere here.
SMILES,SARS PLpro yeast,StopGo reporter,MARV entry inh,Cruzain Triton,Lassa entry inh,Cruzain inh noDet,RE007 growth inh,NS1 function inh
COc1cccc(-c2cc(C(=O)Nn3cnnc3)c3ccccc3n2)c1,-3%,·,-26%,-4.7%,?,6%,-18%,1%
CSCCC(NS(=O)(=O)c1ccc2c(c1)oc(=O)n2C)C(=O)N1CCN(c2ccc(C(C)=O)cc2)CC1 (stereo not drawn),·,8%,·,0.9%,?,3%,·,·
O=C(CCn1ccc2cc(S(=O)(=O)N3CCCC3)ccc21)NCc1cccc(Cl)c1,·,-11%,·,-6.7%,-20%[46.1 µM],10%,·,·
Cc1ccc2ncc(C(=O)Nc3ccc(OC(F)(F)F)cc3)c(=O)n2c1,·,-20%,20%[46.1 µM],-0.6%,·,-5%,·,·
CC1(C)SC(=S)N(/N=C/c2cccnc2)C1N(O)C(=O)NC1CCCCC1 (stereo not drawn),1%,67%[activator],-15%,·,0%,·,3%,-81%
CCC1ON(c2ccccc2)C2c3nc4ccccc4n3CC12 (stereo not drawn),1%,-12%,·,·,·,·,0%,-4%
CCc1nc(SCC(=O)Nc2ccccc2C)n[nH]1,0%,28%,·,·,·,·,-1%,6%
Cc1occc1C(=O)NNC(=O)NC12CC3CC(CC(C3)C1)C2,3%,49%[activator],?,2.7%,-11%,-13%,-6%,5%
COc1ccc(C(=O)N2CCc3cc(OC)c(OC)cc3C2COc2ccc3c(C)cc(=O)oc3c2)c(OC)c1 (stereo not drawn),·,0%,10%[46.1 µM],5.4%,-2%[46.1 µM],?,·,·
COc1ccc(CNC(=O)CCS(=O)(=O)c2cc3c(cc2Cl)NC(=O)CO3)cc1,1%,-11%,4%[46.1 µM],·,?,·,16%,1%
Cc1nc(C)c(C(=O)NNC(=O)c2ccc(Br)cc2)s1,14%,0%,-22%,1.2%,-2%,-7%,-19%,-10%
O=C(O)c1ccc(/C=C/c2ccc3cccc(O)c3n2)cc1,-7%,-1%,?,·,?,·,-9%,·
CC(C)N1CCN(Cc2ccc(OC3CCCC3)cc2)CC1CCO (stereo not drawn),-13%,-23%,·,·,·,·,-6%,12%
CC(=O)Nc1nc(CC(C)C)cc(-c2ccco2)c1C#N,·,-9%,1%,-2.9%,?,18%,-11%,-11%
O=C(NNc1ccccc1C(F)(F)F)c1cccs1,-2%,2%,16%[46.1 µM],·,-7%[46.1 µM],·,-1%,-4%
O=C(O)c1cc2ccc3ccccc3c2[nH]1,-2%,·,?,-7.9%,-6%,2%,-20%,-72%
Fc1cccc2sc(Nc3nnc(-c4ccccc4)o3)nc12,-52%,33%[activator],?,0.4%,?,?,-23%,-45%
CCC(C)c1ccccc1OCCOCCN1CCCC1 (stereo not drawn),11%,0%,?,2.4%,18µM*,6%,-10%,-6%
O=C(C1CCCN(Cc2nc(-c3cccs3)no2)C1)N1CCOCC1 (stereo not drawn),1%,-10%,·,·,·,·,3%,-1%
O=[N+]([O-])c1cccc(CN2CCC(Cc3ccccc3)CC2)c1,2%,-8%,13%,·,5%,·,-7%,-1%
CC(C)OCCCn1c(SC(C)C(=O)NCC2CCCO2)nc2cc(Cl)ccc2c1=O (stereo not drawn),-1%,-10%,-8%,·,11%,·,-26%,·
COc1ccccc1N1CCNCC1,-1%,-6%&-11%,?,2.6%&3.8%,?,10%&-9%,9%[18.4 µM],0%&5%
Nc1nc(NCCCN2CCOCC2)nc(Nc2ccccc2)c1[N+](=O)[O-],12%,-15%,?,-9.2%,1%,-12%,-12%,22%
CC(=O)c1ccc(N2CCN(C(=O)C3CCCN(S(=O)(=O)c4c(C)[nH]c(=O)[nH]c4=O)C3)CC2)cc1 (stereo not drawn),0%,-11%,15%[46.1 µM],·,1%,·,-13%,·
O=C(CCCOc1ccccc1)Nc1nc2ccccc2[nH]1,3%,60%[activator],?,·,-1%,·,-1%,·
c1ccc(-c2nnc(N3CCCC3)nc2-c2ccccc2)cc1,-6%,?,·,·,·,·,-2%,-34%
O=C(Nc1ccc(F)cc1)Nc1cccnc1,-1%,9%,7%[46.1 µM],·,?,·,-1%,0%
COc1cc(C(=O)NCCC2=CCCCC2)ccc1OC1CCN(C(C)=O)CC1,1%,3%,21%,·,-18%,·,-1%,5%
Cc1nn(Cc2ccc(C(=O)Nc3nc4c(C)cccc4s3)o2)c(C)c1Br,0%,?,-22%,-1.6%,-15%,-26%,2%,23%
CC1CCN(CCCNS(=O)(=O)c2cc(Br)cc3c2N(C(=O)C2CC2)CC3)CC1,18%,26%,-2%[46.1 µM],·,·,·,7%,3%
Cc1c(F)cccc1NS(=O)(=O)c1ccc(OCCNS(C)(=O)=O)cc1,0%,7%,-28%[46.1 µM],·,?,·,4%,·
COC(=O)Cn1cc(C(=O)OC)c2ccccc21,-2%,6%,15%,2.3%,0%,-7%,2%,-15%
O=C(CC1Oc2ccccc2NC1=O)NCc1ccc(Cl)cc1 (stereo not drawn),-10%,-22%,·,2.6%,·,-9%,-1%,-12%
O=S(=O)(NCc1cc(-c2ccc(Cl)cc2)no1)c1ccccc1,-8%,-17%,-1%,-11%,0%,3%,2%,-1%
CCOC(=O)c1cc(S(=O)(=O)N2CC(C)CC(C)C2)cn1C (stereo not drawn),-3%,5%,-1%[46.1 µM],·,-24%[46.1 µM],·,-18%,-1%
Cc1cc(=O)c(C(=O)O)nn1-c1ccc(Cl)cc1,2%,-23%,·,·,·,·,-11%,-2%
O=C(COc1ccc2ccccc2c1Br)NC(=S)Nc1cccc(CO)c1,-8%,2%,?,-6.7%,?,32µM*,13%,-5%
O=C(NCc1ccc(F)cc1)C1CCN(C(=O)Nc2ccc(F)cc2)CC1,?,-17%,?,·,?,·,1%,13%
Cc1cccc(N2N=C(C(=O)O)CCC2=O)c1,-1%,-14%,·,·,·,·,9%,2%
CCc1ccc(NC(=O)N2CCN(C(=O)c3nsc4ccccc34)CC2)cc1,·,?,·,-4.8%,-2%[46.1 µM],-6%,·,·
O=C(N/N=C/c1cn(-c2ccccc2)nc1-c1cc2ccccc2o1)c1c[nH]c2ccccc12,-1%,9%,?,·,?,·,17%,28%
NC(=O)CCn1c(C(=O)c2ccc(Cl)cc2)c2ccccc2[n+]1[O-],6%,2%,·,·,·,·,6%,3%
Cc1ccc2c(CN(C)Cc3cccc(F)c3)cc(=O)oc2c1C,-3%,-14%,·,·,·,·,16%,-38%
CCSc1nnc(NC(=O)C2Cc3ccccc3CN2S(=O)(=O)CC)s1 (stereo not drawn),3%,36%[activator],?,-8.9%,11%,-6%,2%,-20%
CSCC[C@H](NC(=O)CCCn1nnc2ccccc2c1=O)C(=O)O,1%,-6%,·,·,·,·,6%,0%
Cc1c(NS(=O)(=O)c2cccc(C(=O)NCc3ccncc3)c2)c(=O)n(-c2ccccc2)n1C,1%,-5%,15%[46.1 µM],-0.1%,-1%,7%,-13%,2%
CCOC(=O)c1c(NC(C)=O)c2c3c(sc2n1Cc1nc(-c2ccc(Cl)cc2)oc1C)CCCC3,·,-16%,5%[46.1 µM],-0.6%,·,-13%,·,·
CC(C)c1nc(Cl)c(C#N)c2c1COC(C)(C)C2,0%,-13%,·,·,·,·,4%,1%
CCCC(=O)Nc1ccc(-c2ccc(NC(=O)CCC)cc2)cc1,28%,-20%,1%,-0.7%,1%,13µM*,8%,1%
CN(C)S(=O)(=O)c1ccc2oc(SCC(=O)NCC(F)(F)F)nc2c1,?,6%,5%,-0.8%,10%,-8%,3%,10µM*
O=C(CNC1CCCCC1)Nc1ccc(Cl)cc1,0%,-1%,·,·,·,·,0%,18%
Cc1cn(C(=O)C(C)N2C(=O)c3ccccc3C2=O)c(C)n1 (stereo not drawn),8%,·,3%,-1.9%,-13%,-5%,-6%,2%
Cc1cc(N)ccc1-c1cc2ccccc2oc1=O,0%,36%[activator],?,·,?,·,3%,3%
Cc1cc(NC(=O)CSCC(=O)N2CCN(c3ccccc3)CC2)no1,-4%,1%,0%,·,3%,·,0%,·
Cn1c(=O)c2sccc2n2c(CCC(=O)NCc3ccc(Cl)cc3)nnc12,·,-15%,13%[46.1 µM],-0.8%,-6%[46.1 µM],10%,·,·
O=C(COc1ccccc1F)NCCc1ccc2c(c1)OCCO2,-3%,7%,?,·,13%[46.1 µM],·,-10%,·
COc1cccc(CN2c3ccccc3-c3nc(SCC(=O)Nc4cccc(C)c4)ncc3S2(=O)=O)c1,·,-15%,?,-4.4%,-18%[46.1 µM],?,·,·
COc1ccccc1CCNC(=O)CCn1c(=O)c2cccn2c2ccc(F)cc21,-2%,-22%&-14%,·,-0.5%,-3%[46.1 µM],5%,-8%,-1%
Cc1csc2ncc(C(=O)NCc3ccco3)c(=O)n12,-1%,18%,21%,-7.7%,-28%,-18%,-12%,1%
COc1ccc(N(C)S(=O)(=O)c2cccc(C(=O)OC(C)C(=O)NC3CCCCC3C)c2)cc1 (stereo not drawn),·,?,·,·,?,·,-2%,·

# (list continues)
SMILES,SARS PLpro yeast,StopGo reporter,MARV entry inh,Cruzain Triton,Lassa entry inh,Cruzain inh noDet,RE007 growth inh,NS1 function inh
CCc1nc2ccccc2c(C(=O)OCC(=O)N2CC(C)OC(C)C2)c1C (stereo not drawn),2%,-17%,-2%,·,-7%,·,?,·
Cc1cc([N+](=O)[O-])ccc1NC(=O)C(C)N1CCN(c2ccccn2)CC1 (stereo not drawn),0%,?,-19%[46.1 µM],·,?,·,-3%,-5%
O=C(N/N=C1/C(=O)c2cccc3cccc1c23)c1ccc(Cl)cc1,-10%,20%,8%,10µM*,?,-27%,-7%,4%
CCOc1ccccc1CNn1nnnc1N,4%,39%[activator],6%,-0.7%,14%,8%,-2%,-8%
NC(=O)c1ccc(NC(=O)CSc2nnc(C3CC3)n2C2CC2)cc1,6%,1%,14%[46.1 µM],·,7%[46.1 µM],·,7%,·
O=C(CCN1CCc2ccccc2C1)Nc1ccccc1F,5%,8%,-24%[46.1 µM],-1.0%,-4%,2%,5%,-5%
